TRPV1 PAM: potentiators of human vanilloid receptor 1 (TRPV1). Q8NER1. TRPV1-expressing cells, Fluo-8 calcium influx, capsaicin EC20 potentiation; host cell line not named in the record; control for the full effect not named in the record. potentiation, % at 8.33 µM. 0.02% of 320,000 active; active means potentiation above 80%; inconclusive means 30% to 80%; inactive means below 30%; also: 0% is about no effect
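TRPV1-expressing cells were cultured overnight at 35.5C and loaded with Fluo-8 calcium dye for 40 to 90 min at room temperature. After a 10 s baseline, compound was added and calcium influx was read kinetically for 3 min (ex 480/em 520 nm).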
Six1-Eya2 blk: inhibitors of human Six1/Eya2 interaction. AlphaScreen GST-Six1/His-Eya2 binding, biochemical; stronger effect = lower value; control for the full effect not named in the record. activity change, % (test concentration not listed). 0.56% of 360,000 active. AID 651725; in the data active = activity change below about -65%; inconclusive = about -30% to -65%; inactive = above about -30%; also: % is scaled to controls: 0 for no effect and ±100 for the full control effect; compound concentration not given in the record
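Compounds are tested against tagged Six1 and Eya2 proteins bridged by glutathione donor and nickel acceptor beads; after a one-hour incubation at 37 °C without light, AlphaScreen emission is recorded.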
D2 ag: activates the human D2 dopamine receptor; P14416; activation, % (concentration not given with the values); 0.084% of 360,000 active; DiscoveRx PathHunter D2 beta-arrestin, luminescence, 90 min; 100% = 57 uM dopamine signal; in the data active = activation above about 40%; inconclusive = about 15% to 40%; inactive = below about 15%; also: compound concentration not given in the record; the text of the record calls up to 30% inactive
Target sequence (P14416 whole entry, looked up): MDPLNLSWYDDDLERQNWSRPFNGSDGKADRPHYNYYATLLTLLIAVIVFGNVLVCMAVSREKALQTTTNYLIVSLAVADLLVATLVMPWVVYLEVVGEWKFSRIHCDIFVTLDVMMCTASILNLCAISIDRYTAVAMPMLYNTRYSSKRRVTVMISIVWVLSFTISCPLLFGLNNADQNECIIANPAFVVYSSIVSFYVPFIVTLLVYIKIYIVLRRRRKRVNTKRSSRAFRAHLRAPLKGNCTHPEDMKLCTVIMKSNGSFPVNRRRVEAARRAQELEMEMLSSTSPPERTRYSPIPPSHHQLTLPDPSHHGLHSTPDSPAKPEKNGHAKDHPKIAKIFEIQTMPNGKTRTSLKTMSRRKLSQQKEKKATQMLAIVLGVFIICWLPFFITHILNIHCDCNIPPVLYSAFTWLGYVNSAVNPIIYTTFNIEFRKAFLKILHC
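DiscoveRx PathHunter D2 beta-arrestin cells (2,100/well) attached overnight, then compound-stimulated 90 min at 37 C in HBSS/10 mM HEPES/0.1% Tween-20 buffer; beta-galactosidase complementation read by luminescence after 1 h at ambient temperature. Dopamine 57 uM final (EC100) as control.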
CtBP-E1A inh: blocks the CtBP interaction with E1A; 0.49% of 340,000 active; AID 651724; AlphaScreen GST-E1A/His-CtBP binding, 1536-well; stronger effect = lower value; control for the full effect not named in the record; activity change, % (no concentration beside the values); in the data active means activity change below about -65%; inconclusive means about -30% to -65%; inactive means above about -30%; also: % is scaled to controls: 0 for no effect and ±100 for the full control effect; compound concentration not given in the record
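Steps: dispense buffer (Tris pH 8.0, NaCl 300 mM, TCEP 1 mM, BSA, Tween 20); add 5X protein mix (GST-E1A, His-CtBP, 125 nM each); pin 23 nL compound; 2 h at 37 °C, dark; add 5X beads (50 ug/mL); 1 h; read.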
PINK1 modulator: PINK1 expression modulation; Potency, µM (doses to about 76.6 µM), for the others: at the top dose activation (PINK1 increase), hits mostly activators; AID 624263; PINK1 immunofluorescence, high-content cytometry, 24 h; 0.2% of 410,000 active; active = well fitted activation curve with a large enough effect; inconclusive = small, poorly fitted or top-dose-only effect; inactive = flat fitted curve, though single readings scatter; cell line not stated here;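 also: potency is read from the fitted curve at half-maximal effect; % of control where 0% means no effect; nearly all actives have a fitted effect of over 65% in size; a mitochondrial uncoupler was the plate control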
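Measures PINK1 amount and localization on or inside mitochondria by immunofluorescence. Stable cells get compounds at 5 concentrations for 24 hours before fixation and staining; CCCP controls included.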
Sfp inh: blocks B. subtilis Sfp PPTase activity. Q9F4F7. 3.5% of 310,000 active. Biochemical Sfp PPTase activity, qHTS. Potency, µM, inactives show max response, negative = inhibition, actives largely listed as inhibitors; active = well fitted inhibition curve with a large enough effect; inconclusive = small, poorly fitted or top-dose-only effect, or another doubt; inactive = no such curve, though single readings can be large or run the other way;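 also: the enzyme is Sfp with the accession as filed and its product quenches rhodamine fluorescence; potency is read from the fitted curve at half-maximal effect; 0% = enzyme reaction without inhibitor and -100% = no enzyme wells; top concentration of the series not given in the record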
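With Hepes-Na pH 7.6 buffer containing 10 mM MgCl2, Sfp (15 nM) modified BHQ-2-YbbR (12.5 uM) using rhodamine-CoA (5 uM). Two reads 30 minutes apart at 525/598 nm yielded each well's rate.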
D2 potentiator: potentiates the human D2 dopamine receptor allosterically; P14416; potentiation, % (no concentration beside the values); AID 624464; DiscoveRx D2 beta-arrestin cells, luminescence, 90 min; 100% = 57 uM dopamine signal; 0.23% of 360,000 active; active = potentiation of 50% or more; inconclusive = 30% to 50%; inactive = 30% or less;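 also: compound concentration not given in the record; tested on top of an EC20 dose of dopamine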
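D2 cells co-treated with compound plus 50 nM dopamine (EC20) for 90 min at 37 deg C to detect potentiation. Beta-arrestin recruitment was read as enzyme-fragment luminescence after 1 h at ambient temperature. Full response was set by 57 uM dopamine.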
* marks the source's active call; other numbers are inactive results; u = inconclusive; x = not tested or not shown; [ ] = remark or other dose. Compounds were not picked by outcome. About 3.7% of those tested had a hit in this group.

SMILES	TRPV1 PAM	Six1-Eya2 blk	D2 ag	CtBP-E1A inh	PINK1 modulator	Sfp inh	D2 potentiator
CCOC(=O)c1ccccc1NC1c2ccccc2C(=O)N1c1ccc(C)cn1 (stereo unspecified)	-11.0	-1.7	1.4	1.5	0.3%	4.2%	-3.0
O=C(O)c1cccc(NC(=S)N/N=C/c2ccccn2)c1	8.2	-76.0*	u	x	-0.2%	-14.0%	-0.3
CCc1ccc(CN(C)C(=O)c2ccc3c(=O)n4c(nc3c2)CCC4)cc1	-17.9	-0.1	-1.9	2.1	2.2%	30.1%[activator]	3.0
CCOC(=O)CN1C(=O)COc2ccc(C(C)(C)C)cc21	-7.3	-5.3	-0.9	18.4	3.9%	10.1%	-17.9
CN(C)CCCNC(=S)N(CCCO)Cc1cc2cc3c(cc2[nH]c1=O)OCO3	-3.7	-0.8	-4.9	-8.6	1.9%	-3.5%	-6.4
O=C1NC(=O)C(c2ccc(Cl)cc2Cl)N1 (stereo unspecified)	x	-0.4	0.2	17.1	-2.5%	x	-2.6
CCCCNC(=O)Cn1c(=O)c2c(ncn2CC)n(Cc2ccccc2)c1=O	-8.2	-2.9	-1.2	x	0.7%	7.2%	-7.6
CCc1ccc(NC(=O)[C@H](Cc2c[nH]c3ccccc23)NC(=O)[C@@H]2Cc3ccccc3CN2)cc1	17.6	-0.5	-2.3	0.0	0.1%	16.7%	-45.9
Cc1cccc(C)c1NC(=O)c1cn(-c2ccccc2)nc1-c1ccccc1	11.6	-2.4	0.3	0.5	7.7%	1.2%	-18.8
COc1ccc(-n2nnnc2SCC(=O)NCCc2ccccc2)cc1OC	0.8	0.0	-2.5	-9.5	7.9%	8.3%	-12.2
Cc1ccsc1C(=O)OCC(=O)c1cc(C)n(C)c1C	x	-1.4	-4.0	x	6.3%	x	-8.6
Cc1sc(NC(=O)CSC2=NCCS2)nc1-c1ccccc1	9.3	-7.6	-7.5	-3.3	-0.4%	-23.3%	-15.7
CCCCCOC(=O)c1ccc(OC(=O)c2cncc(Br)c2)cc1	8.9	-2.0	2.6	-5.8	-3.8%[38.3 µM]	3.4%	-11.5
CC1=C(C(=O)OC2CCCCC2)C(c2cccc([N+](=O)[O-])c2)NC(=O)N1 (stereo unspecified)	-10.5	-0.6	-2.5	x	0.7%	3.0%	-1.2
CS(=O)(=O)c1ccc(Cl)c(NC(=O)COC(=O)c2cccc(C#N)c2)c1	2.8	-0.7	-2.8	-6.6	1.3%	17.0%	2.3
COC(=O)c1c(NC(=O)Cc2cccs2)sc(C)c1C	1.6	2.2	-0.3	3.9	-5.3%[38.3 µM]	-4.3%	-0.7
C/C(=N\NC(=O)c1nn(C)c(C)c1Br)c1ccc(NC(=O)c2ccc(C)s2)cc1	-12.0	-0.7	2.1	6.6	4.0%	-25.6%	1.1
COC(C[C@H]1O[C@H]1[C@@H](O)[C@@H](C)OCc1ccccc1)OC	27.5	6.5	-1.7	5.8	-0.5%	18.7%	-3.4
O=c1[nH]c2cc([N+](=O)[O-])c(NCCO)c([N+](=O)[O-])c2[nH]1	-4.0	-14.8	-6.6	-13.2	2.3%	10.4%	-14.9
COc1cc(/C=C2\SC(=S)N(Nc3ccccc3)C2=O)ccc1O	11.2	u	-14.0	20.4	0.6%	u	-44.1
CCc1cccc(CC)c1NC(=O)CSc1nnc(C2CC2)n1N	-5.4	8.0	-0.3	5.1	0.1%	x	-11.6
Cc1ccc(S(=O)(=O)Nc2ccc(S(=O)(=O)Nc3ncccn3)cc2)cc1	4.7	7.8	-1.3	-1.4	-0.3%	4.1%	-2.9
Cc1ccc(-c2cc(NC(=O)CSc3n[nH]c(N)n3)n(-c3ccccc3)n2)cc1	26.1	0.2	-3.1	2.4	1.8%	5.3%	11.5
Cc1cc(C)n2ncc(C(=O)NCCc3ccccc3)c2n1	14.3	-17.4	5.4	-18.6	-0.7%	-11.6%	-16.9
Cc1cc(C)nc(Nc2cccc(Cl)c2)n1	8.2	4.6	1.4	x	1.8%	11.2%	-0.5
CS(=O)(=O)c1ccc(C(=O)Nc2cc(-c3ccccc3)nn2-c2ccccc2)cc1	u	-6.6	-4.3	-27.0	0.7%	x	-10.1
Fc1ccccc1/C=C1\CCCC2=C1NC(=S)NC2c1ccccc1F (stereo unspecified)	-1.0	-17.3	-4.8	x	4.1%	28.2µM*	-17.2
CCC(CC)C(=O)Nc1nnc(S(=O)(=O)N(CC)c2ccc(OC)cc2)s1	2.9	-12.7	1.2	1.1	0.5%	10.0%	-5.1
COc1cc(C2NC(=O)NC(c3ccccc3)=C2C(C)=O)c(Cl)cc1OCC(=O)O (stereo unspecified)	-4.2	3.7	-4.1	3.1	0.8%	-7.7%	4.8
Fc1cccc(/C=N/Nc2ccccn2)c1	-5.4	-19.1	-1.8	-19.7	2.1%	-25.9%	0.3
CCc1nc2c(OCCC3CCCCC3)cccn2c1N(C)C(=O)c1ccc(C)cc1	x	-13.4	-8.9	-18.9	6.7%	x	-16.5
O=C(N1CCOCC1)N1CCN(C(=O)N(c2ccccc2)c2ccccc2)CC1	-15.7	0.5	1.7	5.4	-5.0%[38.3 µM]	21.4%	8.7
O=C(NCCCn1ccnc1)c1ccc(Cl)s1	8.8	-7.6	-1.4	-18.2	0.6%	19.3%	-17.6
CCOc1ccc(C(=O)NCCC(=O)N2CCC3(CC2)NCCc2[nH]cnc23)cc1	-1.6	-1.3	-1.3	-1.8	-0.6%	11.2%	-4.6

Molecules above that contain a halogen, in the order listed:
SMILES	TRPV1 PAM	Six1-Eya2 blk	D2 ag	CtBP-E1A inh	PINK1 modulator	Sfp inh	D2 potentiator
O=C1NC(=O)C(c2ccc(Cl)cc2Cl)N1 (stereo unspecified)	x	-0.4	0.2	17.1	-2.5%	x	-2.6
CCCCCOC(=O)c1ccc(OC(=O)c2cncc(Br)c2)cc1	8.9	-2.0	2.6	-5.8	-3.8%[38.3 µM]	3.4%	-11.5
CS(=O)(=O)c1ccc(Cl)c(NC(=O)COC(=O)c2cccc(C#N)c2)c1	2.8	-0.7	-2.8	-6.6	1.3%	17.0%	2.3
C/C(=N\NC(=O)c1nn(C)c(C)c1Br)c1ccc(NC(=O)c2ccc(C)s2)cc1	-12.0	-0.7	2.1	6.6	4.0%	-25.6%	1.1
Cc1cc(C)nc(Nc2cccc(Cl)c2)n1	8.2	4.6	1.4	x	1.8%	11.2%	-0.5
Fc1ccccc1/C=C1\CCCC2=C1NC(=S)NC2c1ccccc1F (stereo unspecified)	-1.0	-17.3	-4.8	x	4.1%	28.2µM*	-17.2
COc1cc(C2NC(=O)NC(c3ccccc3)=C2C(C)=O)c(Cl)cc1OCC(=O)O (stereo unspecified)	-4.2	3.7	-4.1	3.1	0.8%	-7.7%	4.8
Fc1cccc(/C=N/Nc2ccccn2)c1	-5.4	-19.1	-1.8	-19.7	2.1%	-25.9%	0.3
O=C(NCCCn1ccnc1)c1ccc(Cl)s1	8.8	-7.6	-1.4	-18.2	0.6%	19.3%	-17.6
